Vaccinia Venus: inhibitors of vaccinia virus (Venus reporter); Potency, µM (highest dose often 36.5 µM), for inactives: at the highest dose activity change, negative = inhibition, usual class: inhibitors; hit rate 0.46% among 330,000; Vaccinia virus Venus reporter expression, fluorescence; AID 720580; active means well fitted inhibition curve with a large enough effect; inconclusive means small, poorly fitted or top-dose-only effect; inactive means no such curve, though single readings can be large or run the other way; tested in A549 cells; further: nearly all actives have a fitted effect of over 30% in size; inactives centre near -10
Vaccinia mCherry: inhibitors of vaccinia virus infection (mCherry reporter signal); hit rate 0.63% among 310,000; Vaccinia virus mCherry reporter infection, fluorescence; about a quarter of the inactives have no number; AID 720579; Potency, µM (doses to about 36.5 µM), for the others: top-dose activity change, negative = inhibition, actives largely listed as inhibitors; active = well fitted inhibition curve with a large enough effect; inconclusive = small, poorly fitted or top-dose-only effect; inactive = no such curve, though single readings can be large or run the other way; tested in A549 cells; further: nearly all actives have a fitted effect of over 35% in size; inactives centre near -10
Active calls of the source: *; i = inactive; ? = inconclusive; · = not tested or not shown; & = joins results of further samples; [ ] = dose if it differs, or a comment. On the % scale 0 is the no-effect control and ±100 the full control effect; potency means the concentration at half of the fitted maximal effect. This is a random part of the collection. Share with any hit: about 0.82%.

SMILES	Vaccinia Venus	Vaccinia mCherry
O=C1CS(=O)(=O)N(Cc2ccccc2F)c2ccc(Br)cc21	-12%	-2%
CC(Nc1nc(-c2ccc3c(c2)NC(=O)CO3)cs1)c1ccccc1 (stereo not given)	-24%	-26%
CCc1ccccc1Cn1c(=O)oc2cccnc21	-12%	-14%
Cc1ccc(N(CC(=O)NC2CCCCC2)C(=O)CCCC(=O)Nc2ccccn2)c(C)c1	-11%	-13%
COc1cc(NC(=O)c2ccc(S(=O)(=O)N(C)c3ccccc3)cc2)cc(OC)c1	-17%	-4%
Cc1cc(NC(=O)CSc2nc3c(c(=O)n2CCc2ccccc2)SC(C)C3)no1 (stereo not given)	-2%	i
COc1ccc(NC(=O)CSc2nnc(CNC(=O)c3ccco3)o2)c(OC)c1	-3%	-16%
c1csc(-c2nc3ccccn3c2NC2CCCCC2)c1	-20%	-19%
O=C(NCc1ccccc1)/C(=C\c1ccc(F)cc1)NC(=O)c1ccco1	-14%	-30%
CCn1c2c(c(=O)n3ncc(C(=O)Nc4ccc(F)cc4Cl)c13)CN(Cc1ccc(OC)cc1)CC2	-10%	-14%[7.34 µM]
Cc1ccc(Nc2nc(N)c([N+](=O)[O-])c(N3CCCC(C)C3)n2)cc1C (stereo not given)	-3%	-10%
CCOC(=O)c1c(NC(=O)c2ccc(S(=O)(=O)N(C)CC3CCCO3)cc2)sc2c1CC(C)(C)NC2(C)C (stereo not given)	-12%	-18%
Cn1c(=O)c2c(nc(Br)n2C)n(C)c1=O	-11%	·
COc1ccc(-c2nc(N)n(C(=O)c3ccccc3)n2)cc1	4%	-11%
O=C(Nc1ccc(Cl)c(Cl)c1)Nc1ccc(N2CCCC2)c(S(=O)(=O)Nc2ccccc2Cl)c1	11µM*	13µM*
S=c1[nH]nc(-c2cc(-c3ccccc3)n[nH]2)n1/N=C/c1cccs1	-21%	-6%
COc1cc(OC)cc(C(=O)Nc2nc3ccc(S(C)(=O)=O)cc3s2)c1	-14%	-14%
CCn1c(SCC(=O)NCCOC)nc2sc3c(c2c1=O)CCCC3	-16%	-4%
CCOC(=O)[C@]12CCCC=C1N(Cc1ccc3c(c1)OCO3)C(=O)[C@H](CC(=O)NCCCN1CCCC1=O)C2	-14%	2%
CC(Oc1ccc(Cl)cc1Cl)c1nc(-c2ccccn2)no1 (stereo not given)	-18%	-17%
Cc1ccc(CCNC(=O)C2CCCN(c3ncnc4c3nc3n4CCCCC3)C2)cc1 (stereo not given)	4%[7.34 µM]	-12%[7.34 µM]
CC(C)CCNC(=O)C1CC(c2ccccc2C(F)(F)F)=NO1 (stereo not given)	-18%	i
COc1cc(NC(=O)C2CCCN(S(=O)(=O)c3cn(C)cn3)C2)cc(OC)c1 (stereo not given)	-15%	i
COc1ccc(NC(=O)C(c2ccccc2)N2Cc3ccccc3C2=O)cc1 (stereo not given)	-11%	-6%
Cc1cccc(NC(=O)COc2ccc(/C=N\n3cnnc3)cc2)c1	-4%	i
CCOC(=O)Cc1csc(N/N=C/c2ccc(Cl)cc2)n1	-11%	-15%
O=C(CNC(=O)c1sc2ccccc2c1Cl)OCc1ccccc1	-7%	-15%
CCc1nc2ccc(C(=O)Nc3cccc(OCC(=O)N(C)C)c3)cn2c1N(CC)CCN(C)C	6%	24%
CC1CC(C)CN(CCCNC(=O)CCC(=O)N2CCOc3ccccc32)C1 (stereo not given)	-7%	-23%
CCOC(=O)C1=C(Nc2ccccc2)CC(C)(O)C(C(=O)OCC)C1c1ccc(Cl)cc1 (stereo not given)	-28%&-22%	-26%&-3%
CN(C)c1ccc(-c2cccc(C3CC=CC4C3C(=O)N(Cc3ccccc3)C4c3ccc4ccccc4c3)c2)cc1 (stereo not given)	-6%	?
Cn1nc(-c2ccc(C(=O)Nc3cccnc3)cc2)c2ccccc2c1=O	-14%	-16%
Cc1ccccc1OCC(O)CN1CCN(c2ccc(Cl)cc2)CC1 (stereo not given)	-14%	?
COCCCNC(=O)C1CC(=O)OC1c1ccc(OC)c(OC)c1 (stereo not given)	-16%	-10%
COc1ccc(S(=O)(=O)Nc2ccc3c(c2)CCCN3S(=O)(=O)c2ccc(C)cc2)cc1F	-22%	-11%
Cc1nc(N)c(C#N)c(-c2cccnc2)c1C	-18%	-20%
O=C(COC(=O)C1=Cc2ccccc2OC1)NCc1ccccc1	-13%	-16%
CN(C)S(=O)(=O)c1ccc(C(=O)OCc2nnc(-c3ccccc3)o2)cc1	2%	i
COc1ccc(C(=O)N2CCCC(c3nc(SCc4ccccn4)ncc3C)C2)cc1F (stereo not given)	?	-24%
Cc1cnc(C(=O)OC(C)C(=O)NC2CCCc3ccccc32)cn1 (stereo not given)	-10%	-18%
COc1cc(-c2[nH]ncc2CN2CCSCC2)cc(OC)c1OC	-27%	i
CC(C)OC(=O)N(C)c1ccc(C(O)(C(F)(F)F)C(F)(F)F)cc1	-12%	-18%
Cc1cccc(NC(=O)C2CCN(S(=O)(=O)c3c(C)[nH]c(=O)[nH]c3=O)CC2)c1	-4%	0%
Cc1ccc(C(C)C)c(OCCNS(C)(=O)=O)c1	-14%	-13%
Cc1noc(C)c1NC(=O)N(C)C[C@H]1Oc2c(NS(=O)(=O)c3cn(C)cn3)cccc2C(=O)N([C@H](C)CO)C[C@@H]1C	-1%	i
O=[N+]([O-])c1ccc(OCc2cnc(Cl)s2)c([N+](=O)[O-])c1	-12%	-30%
CN1C2C=C(N(CCc3c[nH]c4ccccc34)C(=O)c3ccc(Cl)cc3)CC1CC2 (stereo not given)	-18%	-9%
CNC(=O)O/N=C(/C)SC	-10%	-7%
CCCSc1ncc(Cl)c(C(=O)Nc2nc3ccc(OCC)cc3s2)n1	-9%	-15%
CCN(C(=O)Cn1cnc2onc(-c3ccc(F)cc3)c2c1=O)c1ccc(OC)cc1	-10%	-15%
CCOC(=O)NCc1ccc(Cl)c(Cl)c1	-18%	i
C=CCSc1nnc(NC(=O)c2ccc3c(c2)OCCO3)s1	-21%	-1%
Cc1cccc(C)c1NC(=O)CCSc1nc(-c2ccc3c(c2)OCO3)cc(C(F)(F)F)n1	-20%	-12%
C/C(CCN1CCc2nc(-c3ccccc3)c(-c3ccccc3)cc2C1)=N\OC[C@@H](C)[C@H](OCc1ccccc1)C(C)C	-13%	?
Cc1oc(-c2ccccc2NC(=O)c2ccsc2)nc1CN(C)Cc1ccc2c(c1)CCCN2C	-12%	-2%
O=S(=O)(c1ccccc1)N1CCN(C(=S)NCCCN2CCOCC2)CC1	-11%	-12%
COc1ccc(S(=O)(=O)NCC(c2ccc(N(C)C)cc2)N2CCc3ccccc32)cc1F (stereo not given)	-1%	-14%
CC(=O)Oc1ccc(/C=N\NC(=O)c2cc3c(ccc4ccccc43)o2)cc1	-12%	i
CCN(CC)C(=O)c1sc(NC(=O)c2cccs2)c(C#N)c1C	-7%	-1%
COc1ccc(-c2cnc(NCc3cc4c(cc3[N+](=O)[O-])OCO4)n2C)cc1	-3%	-3%

Remaining list, next part:
SMILES	Vaccinia Venus	Vaccinia mCherry
CCCN(CC(=O)Nc1ccccc1C)C(=O)c1ccc(C(=O)c2ccccc2)cc1	-13%	i
COCCCNC(=O)Cn1c(=O)n(-c2cccc(C)c2)c(=O)c2c3c(sc21)CN(C(C)=O)CC3	-6%	-12%
CCc1ccccc1NC(=O)c1cnc2sc(N3CCCC3)nn2c1=O	-10%	-11%
COc1ccc(/C=N/Nc2ccccn2)cc1OC	-21%	-28%
Cc1ccc(SCC(=O)OCC(=O)NCc2cccs2)cc1C	-7%	i
Cc1nn2c(N3CCN(CCO)CC3)c3c(nc2c1-c1ccccc1)CCCC3	?	-23%
Cn1cnnc1SCc1ccc(C#N)cc1	1%	·
COc1cc(/C=C/CO)cc(OC)c1O[C@@H]1O[C@H](CO)[C@@H](O)[C@H](O)[C@H]1O	-4%	-9%
C[C@H](CO)N1C[C@H](C)[C@@H](CN(C)S(=O)(=O)c2ccc3c(c2)OCCCO3)OCc2cnnn2CCCC1=O	-5%	0%
COc1ccc(C2=CN3CCCCC3CC2=O)cc1OC (stereo not given)	-11%	-30%
O=C(c1cccc(C(=O)N2CCN(Cc3ccccc3)CC2)c1)N1CCN(Cc2ccccc2)CC1	-27%	·
Cc1ccc(NC(=O)c2cc(-c3ccc(F)cc3)on2)cc1C	-9%	-11%
CC(C)(C)C(=O)Nc1sc2c(c1C#N)CCC2	2%	-8%
O=C1N/C(=N\S(=O)(=O)c2ccccc2)S/C1=C\c1cc([N+](=O)[O-])ccc1O	58%[activator]	-7%
Cc1cccc(NC(=O)c2ccc(-c3nc(CSc4ccccc4)c(C)o3)cc2)c1C	-26%	?
Cc1ccc(C(=O)Nc2ccccc2C(=O)NC2CCCCC2)cc1S(=O)(=O)N1CCOCC1	-22%	-17%
CCCN1C(=O)SC(CC(=O)Nc2ccc(C)cc2)C1=O (stereo not given)	-2%	·
CCOC(=O)c1c(N)nn(C(=O)c2ccccc2F)c1-c1ccc(OC)cc1	-9%	-2%
Cn1cccc1CC(=O)NNC(=S)Nc1ccccc1Cl	-10%	-5%
CC(=O)c1c(C)[nH]c(C(=O)CN2CCN(S(=O)(=O)c3ccccc3F)CC2)c1C	-18%	-26%
O=C(Nc1c2c(nn1-c1ccc(F)cc1)CS(=O)C2)C12CC3CC(CC(C3)C1)C2 (stereo not given)	-2%	0%
C=C(C)C1Cc2c(C)nn(-c3nc(C)cc(C)n3)c2C1 (stereo not given)	-22%	·
CCS(=O)(=O)Nc1ccccc1C(N)=O	9%	7%
Cc1ccccc1CNC(=O)c1ccccc1NC(=O)c1nsc2ccccc12	?	-11%
CCOP(=O)(OCC)C(O)c1ccc(OC)cc1OC (stereo not given)	-7%	0%
C/C(=N\NC(=O)C(C)Sc1ccccc1)C(C)(C)C (stereo not given)	3%	2%
Cc1ccnc2c(Cl)ccc(Cl)c12	-9%	-11%
O=C(NC1CC(=O)N(c2ccccc2)C1)c1ccc(Br)o1 (stereo not given)	-6%[7.34 µM]	-5%[7.34 µM]

Compound activity from PubChem BioAssay.
